Assay outcomes: PubChem, National Center for Advancing Translational Sciences (NCATS)
gsp antagonist: qHTS for Antagonists of gsp, the Etiologic Mutation Responsible for Fibrous Dysplasia/McCune-Albright Syndrome: qHTS. gsp-mutant cells, cAMP HTRF, 30 min; control for the full effect not named in the record. Potency, µM (top dose mostly 76.9 µM), without a hit: at the highest dose activity change, negative = inhibition, usual class: inhibitors. 0.4% of 340,000 active. AID 624288, 2012; active = falling curve of any shape with a large fitted effect; inconclusive = falling curve, mostly with a smaller effect; inactive = flat or rising curve; cell line not stated here;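 note: intracellular cAMP measured with PDE inhibitor Ro 20-1724 present during compound exposure; potency is the fitted concentration of half-maximal effect; % is set by controls: 0 for no effect and ±100 for the full control effect; nearly all actives have a fitted effect of over 65% in size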
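HTRF cAMP read-out (cAMP-d2 plus anti-cAMP antibody-K in lysis buffer, 30 min RT). Before lysis, cells are exposed to compounds with […] for 30 min at 37C in DPBS containing Ca/Mg, BSA and Tween 20.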
D2 PAM: Beta-Arrestin HTS for Positive Allosteric Modulators of the Human D2 Dopamine Receptor: Potentiators. DiscoveRx D2 beta-arrestin cells, luminescence, 90 min; 100% = 57 uM dopamine signal. potentiation, % (concentration not given with the values). 0.23% of 360,000 active; active = potentiation of 50% or more; inconclusive = 30% to 50%; inactive = 30% or less;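 note: compound concentration not given in the record; tested on top of an EC20 dose of dopamine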
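PathHunter D2 cells, attached overnight at 37 deg C, received compound in DMSO plus dopamine at EC20 (50 nM final) for 90 min at 37 deg C. Beta-arrestin recruitment was read as luminescence after 1 h with detection reagent at ambient temperature.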
ClpP mod: qHTS Assay for Activators of ClpP. ATP-dependent Clp protease proteolytic subunit (Bacillus subtilis (strain 168)), P80244. purified B. subtilis ClpP, FRET peptide cleavage, 20 min. Potency, µM (doses to about 57.5 µM), inactives show top-dose activity change, negative = active. 1.9% of 340,000 active. AID 651965, 2013; active = well fitted falling curve with a large enough effect; inconclusive = small, poorly fitted or top-dose-only effect; inactive = no such curve, though single readings can be large or run the other way; note: potency is the fitted concentration of half-maximal effect; the source files actives as falling curves though it sought activators and does not explain the sign; nearly all actives have a fitted effect of over 65% in size; many hits overshoot -100%
Target sequence (P80244 whole entry, looked up): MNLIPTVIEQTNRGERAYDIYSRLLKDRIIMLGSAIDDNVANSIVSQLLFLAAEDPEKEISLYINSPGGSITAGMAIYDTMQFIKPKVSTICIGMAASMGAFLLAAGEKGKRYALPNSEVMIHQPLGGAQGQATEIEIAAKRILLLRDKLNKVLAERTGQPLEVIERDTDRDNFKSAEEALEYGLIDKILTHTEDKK
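FRET quenching reversal measured ClpP activation: 10 microg/mL B. subtilis ClpP at pH 8 with the FRET-FV decapeptide, read at 430 nm after 320 nm excitation. The 20-min minus 0-min signal was scaled between DMSO/no-enzyme wells and ADEP (5.8 microM final).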
gsp agonist: qHTS for Agonist of gsp, the Etiologic Mutation Responsible for Fibrous Dysplasia/McCune-Albright Syndrome: qHTS. gsp mutant cells, cAMP HTRF, 30 min; control for the full effect not named in the record. Potency, µM (doses to about 76.9 µM), without a hit: top-dose activation (cAMP increase), hits mostly activators. 0.13% of 340,000 active; active = well fitted activation curve with a large enough effect; inconclusive = small, poorly fitted or top-dose-only effect, or another doubt; inactive = no such curve, though single readings can be large or run the other way; cell line not stated here;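 note: phosphodiesterase inhibitor Ro 20-1724 added with compounds to block cAMP breakdown; potency is the fitted concentration of half-maximal effect; nearly all actives have a fitted effect of over 60% in size; about a fifth of the inactives were tested at one dose only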
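Cells stably selected in G418 were plated at 2000/well, grown 16-24 hr, then given compounds in DMSO with the PDE inhibitor […] (300 uM solution added) for 30 min at 37C; cAMP was read by HTRF.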
Menin-MLL FL inh: qHTS Assay for Inhibitors Targeting the Menin-MLL Interaction in MLL Related Leukemias: Competition With Fluorescein Labeled MLL-derived Peptide; AID 1766, 2009; Fluorescence polarization, fluorescein-MLL peptide displacement from menin; FP activity change, % at 61.4 µM; 290,000 tested, under 10 active; inconclusive = falling polarisation curve, or a change in total fluorescence; inactive = total fluorescence flat and polarisation flat or rising; no compound was filed as active; the % refers to the polarisation; negative = inhibition;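 note: % of control where 0% means no effect; inhibitors lower the polarisation; unlabelled MLL peptide was the positive control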
Sfp inh: qHTS Assay for Inhibitors of Bacillus subtilis Sfp phosphopantetheinyl transferase (PPTase); Potency, µM, for the others: max response, negative = inhibition, hits mostly inhibitors; Biochemical Sfp PPTase activity, qHTS; 3.5% of 310,000 active; 4'-phosphopantetheinyl transferase ffp (Bacillus subtilis), Q9F4F7; active = well fitted inhibition curve with a large enough effect; inconclusive = small, poorly fitted or top-dose-only effect, or another doubt; inactive = no such curve, though single readings can be large or run the other way;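 note: the enzyme is Sfp with the accession as filed and its product quenches rhodamine fluorescence; potency is the fitted concentration of half-maximal effect; 0% = enzyme reaction without inhibitor and -100% = no enzyme wells; top concentration of the series not given in the record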
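Step 1, compound plus 15 nM Sfp-PPTase, 15 min, room temperature. Step 2, add rhodamine-CoA (5 uM) and BHQ-2-YbbR (12.5 uM). Step 3, read 525/598 nm fluorescence at 0 and 30 min.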
TRPV1 PAM: HTS Assay for Compounds that Act as Potentiators of the Vanilloid Receptor 1; 0.02% of 320,000 active; potentiation, % at 8.33 µM; Transient receptor potential cation channel subfamily V member 1 (Homo sapiens), Q8NER1; TRPV1-expressing cells, Fluo-8 calcium influx, capsaicin EC20 potentiation; host cell line not named in the record; control for the full effect not named in the record; AID 540277, 2011; active means potentiation above 80%; inconclusive means 30% to 80%; inactive means below 30%; note: 0% is about no effect
Target sequence (Q8NER1 whole entry, looked up): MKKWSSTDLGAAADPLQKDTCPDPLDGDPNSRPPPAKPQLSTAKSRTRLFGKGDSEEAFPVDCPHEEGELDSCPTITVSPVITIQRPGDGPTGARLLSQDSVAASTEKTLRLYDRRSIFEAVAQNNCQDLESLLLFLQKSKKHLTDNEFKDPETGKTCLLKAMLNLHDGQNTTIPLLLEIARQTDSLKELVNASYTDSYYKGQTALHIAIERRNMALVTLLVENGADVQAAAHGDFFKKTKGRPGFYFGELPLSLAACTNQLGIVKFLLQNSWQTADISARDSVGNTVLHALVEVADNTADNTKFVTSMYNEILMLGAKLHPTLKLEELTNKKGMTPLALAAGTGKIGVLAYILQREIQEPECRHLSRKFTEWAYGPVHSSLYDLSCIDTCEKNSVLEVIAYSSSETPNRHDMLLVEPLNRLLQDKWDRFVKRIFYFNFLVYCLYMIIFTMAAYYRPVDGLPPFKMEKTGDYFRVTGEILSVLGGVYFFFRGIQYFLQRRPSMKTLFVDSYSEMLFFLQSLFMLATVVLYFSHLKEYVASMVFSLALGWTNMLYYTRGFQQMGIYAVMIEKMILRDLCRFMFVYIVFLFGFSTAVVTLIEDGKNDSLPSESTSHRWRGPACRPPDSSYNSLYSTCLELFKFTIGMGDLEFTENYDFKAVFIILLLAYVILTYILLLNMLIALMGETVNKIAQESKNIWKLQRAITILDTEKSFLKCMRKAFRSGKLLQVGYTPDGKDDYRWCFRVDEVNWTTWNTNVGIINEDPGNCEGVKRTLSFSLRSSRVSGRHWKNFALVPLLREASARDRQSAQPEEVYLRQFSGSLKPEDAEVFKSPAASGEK
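Fluo-8 calcium influx in TRPV1-expressing cells, kinetic read (ex 480/em 520 nm). Compound added and read 3 min for agonist activity, followed by capsaicin at EC20 final and 2 min further read for enhancement.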
* marks the source's active call; other numbers are inactive results; [ ] = remark or other dose.

For Cc1ccc(CNC(=O)CCNC(=O)c2ccc([N+](=O)[O-])cc2)cc1 the results were gsp antagonist 13.4%, D2 PAM -4.7, ClpP mod 1.0% and gsp agonist 0.1%[15.4 µM].
`COc1ccc(S(=O)(=O)N2CCC(N3CCCC3)CC2)cc1` gave gsp antagonist 0.1%, D2 PAM -6.7, ClpP mod -0.7%, gsp agonist 9.8%, Sfp inh -26.0% and TRPV1 PAM 14.3.
Screening CCN(CC)S(=O)(=O)c1ccc(C(=O)NCCSc2c[nH]c3ccccc23)cc1 returned gsp antagonist 0.2%, D2 PAM -1.5, ClpP mod 0.7%, gsp agonist -47.7%[inhibitor], Menin-MLL FL inh 12.3, Sfp inh 16.6% and TRPV1 PAM -17.7.
Screening Cc1ccc(S(=O)(=O)N=Nc2c(O)[nH]c3ccccc23)cc1C returned gsp antagonist 3.8%, D2 PAM -32.5, ClpP mod -21.7%, gsp agonist -21.6%, Menin-MLL FL inh -2.0, Sfp inh -0.7% and TRPV1 PAM 0.8.
COc1cccc2cc(C(=O)N(C)C)c(=O)oc12 was read as gsp antagonist 4.0%, D2 PAM -22.0, ClpP mod 1.2%, gsp agonist -1.8%, Menin-MLL FL inh 0.6, Sfp inh 11.7% and TRPV1 PAM 2.0.
O=C(NCC(=O)N(c1ccc(F)cc1)C(C(=O)NC1CCCC1)c1ccncc1)c1ccco1 (stereo not given) was read as gsp antagonist 5.3%, D2 PAM -4.9, gsp agonist -13.9%[15.4 µM], Menin-MLL FL inh -0.7, Sfp inh 5.3% and TRPV1 PAM 2.4.
`c1ccc(Cn2ccnc2C2OCCO2)cc1` gave D2 PAM -2.2, ClpP mod -0.2% and gsp agonist -18.7%.
Screening O=C(O)/C=C/c1cnc2ccccc2n1 returned gsp antagonist -7.5%, D2 PAM 25.4, gsp agonist -0.2%, Menin-MLL FL inh 1.6, Sfp inh 12.6% and TRPV1 PAM -2.4.
For CCOC(=O)C(Sc1ncnc2c1sc1nc(N3CCOCC3)c3c(c12)CCCC3)c1ccccc1 (stereo not given) the results were Menin-MLL FL inh 6.6, Sfp inh inconclusive and TRPV1 PAM 1.8.
Screening CCCC(C)NS(=O)(=O)c1ccc(OC)c(C)c1 (stereo not given) returned gsp antagonist -1.8%, D2 PAM -10.9, ClpP mod -1.3%, gsp agonist -111.0%[inhibitor], Menin-MLL FL inh 2.4, Sfp inh 7.6% and TRPV1 PAM -10.6.
Screening CCC(C)C(NC(N)=O)C(=O)Nc1ccc(S(=O)(=O)Nc2ccc(OC)cc2)cc1 (stereo not given) returned gsp antagonist -10.6%, D2 PAM 0.6, gsp agonist 2.5%[15.4 µM], Menin-MLL FL inh 0.5, Sfp inh 9.5% and TRPV1 PAM -2.3.
`Cc1cccc(CNC(=O)CC2C(=O)NCCN2C2CCCC2)c1` (stereo not given) gave gsp antagonist -1.4%, D2 PAM -2.7, gsp agonist -0.7%[15.4 µM], Menin-MLL FL inh 5.1, Sfp inh 3.4% and TRPV1 PAM 9.0.
`COc1ccc(N2CCN(CNC(=O)c3ccccc3)CC2)cc1` gave gsp antagonist -6.9%, D2 PAM -2.8, ClpP mod -2.2%, gsp agonist -8.4%, Menin-MLL FL inh -2.9, Sfp inh 12.3% and TRPV1 PAM 19.2.
`Cc1cc2c(cc1C)NC(CC(=O)NCc1ccccc1)C(=O)N2` (stereo not given) gave gsp antagonist -2.4%, D2 PAM -4.1, ClpP mod inconclusive, gsp agonist 24.9%, Menin-MLL FL inh 5.8, Sfp inh -12.6% and TRPV1 PAM 2.8.
CCOc1ccc(S(=O)(=O)Nc2ccc(C(=O)NCC(C)(C)N3CCOCC3)cc2)cc1 was read as gsp antagonist -11.4%, D2 PAM -14.2, ClpP mod -2.2%, gsp agonist inconclusive and TRPV1 PAM 2.6.
`COc1ccc(NC(=O)C2Cc3ccccc3O/C2=N\O)cc1` (stereo not given) gave gsp antagonist 3.3%, D2 PAM 0.7, ClpP mod -0.9%, gsp agonist inconclusive, Menin-MLL FL inh -2.6, Sfp inh -3.8% and TRPV1 PAM -12.4.
COc1ccc(NC(=O)CSc2nnc(C)n2N)cc1S(=O)(=O)N1CCCCC1 was read as gsp antagonist -0.5%, D2 PAM -4.3, ClpP mod 0.1%, gsp agonist 25.3% and TRPV1 PAM inconclusive.
CC(C)n1cc(CN2CCN(CCc3ccccc3)C(CCO)C2)cn1 (stereo not given) was read as gsp antagonist 4.4%, D2 PAM -12.9, gsp agonist -11.0%[15.4 µM], Menin-MLL FL inh -7.6, Sfp inh 16.0% and TRPV1 PAM 1.2.
`O=C(c1cc(NC(=O)C23CC4CC(CC(C4)C2)C3)cc(NC(=O)C23CC4CC(CC(C4)C2)C3)c1)N1CCCCC1` gave gsp antagonist -18.8%, D2 PAM 25.3, ClpP mod -1.2%, gsp agonist -2.3%, Menin-MLL FL inh 0.5, Sfp inh -12.3% and TRPV1 PAM 19.3.
For CC(C)Cc1cc(C(=O)N(C)C2CCCN(Cc3ccccc3F)C2)n(C)n1 (stereo not given) the results were gsp antagonist -2.1%, D2 PAM -7.9, ClpP mod -3.7%, gsp agonist 21.4%, Menin-MLL FL inh -1.5, Sfp inh 10.3% and TRPV1 PAM -15.5.
`O=C(Nc1cccc(C(=O)O)c1)/C(=C\c1ccc2c(c1)OCO2)NC(=O)c1ccccc1Cl` gave gsp antagonist -7.3%, D2 PAM -7.1, ClpP mod -6.0%, gsp agonist inconclusive, Sfp inh -0.9% and TRPV1 PAM 9.5.
`CCN(CC)c1ccc(C(=O)OCC(=O)Nc2sccc2C#N)cc1` gave gsp antagonist -18.3%, D2 PAM -14.2, ClpP mod -2.9%, gsp agonist -2.3%, Menin-MLL FL inh 1.1, Sfp inh 1.5% and TRPV1 PAM 14.3.
Screening Clc1ccc(Oc2ccccc2)c2ncccc12 returned gsp antagonist 1.9%, D2 PAM -11.7, ClpP mod -16.5%, gsp agonist 1.9%, Menin-MLL FL inh -0.7, Sfp inh 1.2% and TRPV1 PAM 5.1.
For COc1ccc2nc(NC(=O)Cc3ccc(OC)c(S(=O)(=O)N4CCOCC4)c3)sc2c1 the results were gsp antagonist 1.5%, D2 PAM -1.0, ClpP mod 0.5%, gsp agonist -2.8%, Menin-MLL FL inh 7.5, Sfp inh 15.7% and TRPV1 PAM -0.6.
For Cn1nc(C(F)(F)F)c(-c2cccc(C(F)(F)F)c2)c1NC(=O)c1cccnc1 the results were gsp antagonist 1.2%, D2 PAM -2.8, ClpP mod -0.7%, gsp agonist 14.6%, Menin-MLL FL inh -1.2, Sfp inh 8.8% and TRPV1 PAM -11.7.
For CC(Oc1ccccc1)C(=O)N1CCN(C(=O)C(C)Oc2ccccc2)CC1 (stereo not given) the results were gsp antagonist 4.6%, D2 PAM -10.5, ClpP mod -1.3%, gsp agonist 5.9%[15.4 µM], Sfp inh 2.4% and TRPV1 PAM -1.0.
`Cc1ccccc1NC(=O)c1cc(S(=O)(=O)N2CCCCC2)cs1` gave gsp antagonist -4.3%, D2 PAM -1.2, ClpP mod -2.3%, gsp agonist -49.1%[inhibitor], Menin-MLL FL inh 2.9, Sfp inh 13.2% and TRPV1 PAM -6.3.
Screening O=C(NC1CCN(Cc2ccccc2)CC1)c1ccc(S(=O)(=O)NCc2ccco2)cc1 returned gsp antagonist 9.8%, D2 PAM -32.2, ClpP mod -0.7%, gsp agonist -48.7%[inhibitor], Menin-MLL FL inh -1.0, Sfp inh 16.4% and TRPV1 PAM -3.4.
`Cc1ccc(NC(=O)COC(=O)C2(C)CC2(Cl)Cl)cc1S(=O)(=O)N1CCOCC1` (stereo not given) gave gsp antagonist 0.1%, D2 PAM -9.0, ClpP mod 0.5%, gsp agonist -9.9% and TRPV1 PAM -16.3.
Screening COc1ccc(C)cc1S(=O)(=O)NC1CCCCC1C (stereo not given) returned gsp antagonist 6.1%, D2 PAM 5.4, ClpP mod 208.9%, gsp agonist 32.6%, Menin-MLL FL inh 3.3, Sfp inh 11.8% and TRPV1 PAM -8.4.
Screening O=C(COC(=O)c1cc(Cl)ccc1O)Nc1ccc2c(c1)OCCO2 returned gsp antagonist inconclusive, D2 PAM 0.5, ClpP mod 2.1%, gsp agonist -5.1% and TRPV1 PAM -3.0.
`CCOC(=O)N1CCN(CC(O)COc2c(OC)cccc2OC)CC1` (stereo not given) gave gsp antagonist 9.7%, D2 PAM -35.0, ClpP mod -1.0%, gsp agonist -9.3%, Menin-MLL FL inh 0.8, Sfp inh -9.2% and TRPV1 PAM -2.1.
Screening CC(=O)c1cccc(S(=O)(=O)NCCC(=O)Nc2ccc(S(N)(=O)=O)cc2)c1 returned gsp antagonist 21.3%, D2 PAM -0.5, gsp agonist -4.1%[15.4 µM], Menin-MLL FL inh -8.7, Sfp inh 22.3% and TRPV1 PAM -1.9.
Screening COc1ccc(N/N=C(\C#N)C(N)=O)cc1 returned gsp antagonist -13.7%, D2 PAM -10.4, gsp agonist 31.7%[15.4 µM], Menin-MLL FL inh 0.6, Sfp inh 0.8% and TRPV1 PAM 4.4.
Screening CC(C)CN(C(=O)Cn1c(C(F)(F)F)nc2ccccc21)c1c(N)n(Cc2ccccc2)c(=O)[nH]c1=O returned gsp antagonist 1.5%, D2 PAM -0.5, ClpP mod -1.8% and gsp agonist 0.6%.
For COc1ccccc1OCC(=O)NNC(=O)C1CCN(c2ncnc3sc(C)c(C)c23)CC1 the results were gsp antagonist -23.9%, D2 PAM 11.7, ClpP mod 1.5%, gsp agonist 27.5% and TRPV1 PAM -3.6.
For CCN(Cc1ccccc1)C(c1cc2cc(C)cc(C)c2[nH]c1=O)c1nnnn1CCOC (stereo not given) the results were gsp antagonist 40.1%[activator], D2 PAM -9.2, ClpP mod -13.1%, gsp agonist 10.4%, Menin-MLL FL inh -0.5, Sfp inh -16.8% and TRPV1 PAM 3.6.
